Screening data: PubChem, several laboratories
Mtb hypoxia rep: PubChem AID 1159583; fluorescence inhibition, % (no concentration beside the values); 300,000 tested, 0.1% active; M. tuberculosis hypoxia-regulated fluorescent reporter, fluorescence;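 active = 35 to 45% if threefold the growth effect, above 45% if 1.5-fold the growth effect; inactive = the rest, general growth blockers included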;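 note: wells of about 50 µL received 100 nL stock; 0% = vehicle wells and 100% = reference inhibitor wells; whole bacteria with a GFP reporter of the hypoxia response; strong numbers were not always called active; many hits fall short of the cut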
ugtP null kill: growth inhibition of ugtP-null S. aureus, primary screen, RN4220 ugtP deletion, OD600; 16 h; some inactives read as strong as hits; growth inhibition, % (concentration not given with the values); 330,000 tested, 0.54% active;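 active = z-score under -3 and OD600 up to 0.15 on both plates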;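 note: plate controls were untreated wells for no effect and antibiotic for full effect; wells of about 80 µL received 100 nL stock; the first replicate is given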
PrP UTR inh: inhibition of PrP 5' UTR reporter expression; inhibition, % (test concentration not listed); cell-based PrP 5' UTR mRNA reporter, plate reader; 340,000 tested, 0.35% active;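 active = every replicate at 50% or more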;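 note: 0 = median of the neutral control wells; tested in H4 reporter cells; numbers are from one replicate; inactives centre near -14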
BJeLR viability: MLPCN primary cell-based screen for lethality selective to Ras in HRASV12 cells; BJeLR (HRASV12) viability, CellTiter-Glo ATP luminescence, 48 h; reference of the scale not given here; inhibition, % (test concentration not listed); 300,000 tested, 0.17% active; AID 1554, 2009;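 active = replicate mean above 50%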;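 note: 50 nL library stock added to about 25 µL; numbers are from one replicate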
RN4220 kill: growth inhibition of S. aureus RN4220, primary screen, OD600 | 16 h | inhibition, % (test concentration not listed) | 330,000 tested, 0.33% active;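 active = z-score of -3 or lower and OD600 up to 0.18 on both plates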;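 note: plate controls were untreated cells for no effect and reference antibiotic for full effect; stock transfer was 100 nL into about 80 µL; one replicate is shown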
Bead autofluor: flagged as autofluorescent in microsphere protease counterscreen | compound autofluorescence counterscreen, microsphere flow cytometry; stronger effect = higher value | fluorescence intensity (test concentration not listed) | 360,000 tested, 3.1% active | AID 624483;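 active = at least 3 SD above the mean of all compounds, about 16000 in these data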;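 note: 100 nL of 1 mM stock went into each well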
Mtb hypoxia rep growth: recorded beside Mtb hypoxia rep, whose call it bears; growth inhibition, %; measured here: M. tuberculosis growth (absorbance);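 0% = vehicle and 100% = reference antibiotic; read after six days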
* = called active by the depositor.

How did Cc1ccccc1OCC(O)CN1CCN(CC(O)COc2ccccc2C)C(C)C1 (configuration not stated) do in these assays?
Mtb hypoxia rep: -2; ugtP null kill: 0; PrP UTR inh: -20; BJeLR viability: -6; RN4220 kill: 3.6; Bead autofluor: 4000; Mtb hypoxia rep growth: 2

What do the screens show for `CC(=O)O[C@H]1CC[C@@]2(C)C(=CC[C@H]3[C@@H]4CC[C@H](C5(C)OCCO5)[C@@]4(C)CC[C@@H]32)C1`?
PrP UTR inh: -11; BJeLR viability: 4; Bead autofluor: 3014

How did CCN(CC)CCCn1c(=S)[nH]c2ncccc2c1=O do in these assays?
Mtb hypoxia rep: 1; ugtP null kill: 5; PrP UTR inh: -1; BJeLR viability: 3; RN4220 kill: 0.4; Bead autofluor: 15205; Mtb hypoxia rep growth: -8

How did Cc1ccc(S(=O)(=O)N2CCOCC2)cc1NC(=O)COC(=O)C1COc2ccccc2O1 (configuration not stated) do in these assays?
Mtb hypoxia rep: 7; ugtP null kill: 1; PrP UTR inh: -13; BJeLR viability: 4; RN4220 kill: 1.5; Bead autofluor: 2452; Mtb hypoxia rep growth: 6

What do the screens show for `CC(C)(C)CC(C)(C)NC(=S)Nc1ccc(S(=O)(=O)N2CCOCC2)cc1`?
Mtb hypoxia rep: 5; ugtP null kill: -12; PrP UTR inh: -27; BJeLR viability: -9; RN4220 kill: 2.1; Bead autofluor: 2563; Mtb hypoxia rep growth: 4

How did Cc1cc(=O)[nH]c(SCCOc2cccc(C(F)(F)F)c2)n1 do in these assays?
Mtb hypoxia rep: -1; ugtP null kill: -6; PrP UTR inh: -6; BJeLR viability: 5; RN4220 kill: 2.9; Bead autofluor: 7946; Mtb hypoxia rep growth: 4

What do the screens show for `O=C(Nc1ccc(Oc2cccnc2)cc1)C1CCN(Cc2ccccc2F)CC1`?
Mtb hypoxia rep: 6; ugtP null kill: -7; PrP UTR inh: -9; BJeLR viability: 9; RN4220 kill: -3.5; Bead autofluor: 6241; Mtb hypoxia rep growth: -1

How did CSc1ccc(Cl)c(C(=O)NCCOc2cc(C(C)C)ccc2C)c1 do in these assays?
Mtb hypoxia rep: 6; ugtP null kill: 97*; BJeLR viability: -2; RN4220 kill: 96*; Bead autofluor: 11025; Mtb hypoxia rep growth: 10

How did COc1cccc(OCc2cc(/C=N/NC(=O)c3ccn[nH]3)ccc2OC)c1 do in these assays?
PrP UTR inh: -23; BJeLR viability: 2; Bead autofluor: 4534

How did O=C(Nc1cccnc1)C1CCCN(S(=O)(=O)c2cccc3nsnc23)C1 (configuration not stated) do in these assays?
ugtP null kill: 1; PrP UTR inh: -6; BJeLR viability: 0; RN4220 kill: -2.2; Bead autofluor: 4825

What do the screens show for `Cc1ccc2c(c1)C=CC(C)N2C(=O)c1ccccc1` (configuration not stated)?
ugtP null kill: -4; PrP UTR inh: -13; BJeLR viability: -5; RN4220 kill: 6.2; Bead autofluor: 2966

How did CN(C)/C=N/c1c(C#N)cnn1-c1nc2ccccc2s1 do in these assays?
PrP UTR inh: -1; BJeLR viability: -10; Bead autofluor: 2916

Results for COC(=O)c1ccc(C(NC(=O)OCc2ccccc2)/C(C)=C/[C@@H](C)C(=O)NCc2ccc(-c3ccccc3)cc2)cc1 (some centres not stated) ?
PrP UTR inh: -20; BJeLR viability: -9; Bead autofluor: 4129

How did COc1cccc(/C=C/C(=O)c2cccc([N+](=O)[O-])c2)c1 do in these assays?
Mtb hypoxia rep: -2; ugtP null kill: 8; PrP UTR inh: -15; BJeLR viability: 6; RN4220 kill: 16; Bead autofluor: 4007; Mtb hypoxia rep growth: -5

Results for CCOC(=S)SCC(=O)N1CCc2ccccc2C1C1C(=O)CCCC1=O (configuration not stated) ?
Mtb hypoxia rep: -4; ugtP null kill: 7; PrP UTR inh: -9; BJeLR viability: 1; RN4220 kill: -2.2; Bead autofluor: 2116; Mtb hypoxia rep growth: -2

Reprinted from the part before: 2 entries; new compounds follow.
How did COc1cccc(/C=C/C(=O)c2cccc([N+](=O)[O-])c2)c1 do in these assays?
Mtb hypoxia rep: -2; ugtP null kill: 8; PrP UTR inh: -15; BJeLR viability: 6; RN4220 kill: 16; Bead autofluor: 4007; Mtb hypoxia rep growth: -5

Results for CCOC(=S)SCC(=O)N1CCc2ccccc2C1C1C(=O)CCCC1=O (configuration not stated) ?
Mtb hypoxia rep: -4; ugtP null kill: 7; PrP UTR inh: -9; BJeLR viability: 1; RN4220 kill: -2.2; Bead autofluor: 2116; Mtb hypoxia rep growth: -2

How did C/C(=N/NC(=O)C1CC1(c1ccccc1)c1ccccc1)c1cccs1 (configuration not stated) do in these assays?
PrP UTR inh: -10; BJeLR viability: -17; Bead autofluor: 2179

How did O=C(Cc1ccc(Cl)cc1)Nc1ccc(-c2nnc(-c3ccco3)o2)cc1 do in these assays?
Mtb hypoxia rep: 5; ugtP null kill: -17; PrP UTR inh: -22; BJeLR viability: 0; RN4220 kill: -2.8; Bead autofluor: 4345; Mtb hypoxia rep growth: 6

What do the screens show for `CC(C)C[C@H](NC(=O)c1nc[nH]c1C(=O)NC1CCN(C(=O)OC(C)(C)C)CC1)C(=O)OCc1ccccc1`?
PrP UTR inh: -8; BJeLR viability: -4; Bead autofluor: 4212

Results for Cc1nn(C(C)C(=O)N2CCN(c3ccccn3)CC2)c(=O)c2cc3occc3n12 (configuration not stated) ?
Mtb hypoxia rep: 0; ugtP null kill: 1; PrP UTR inh: -11; BJeLR viability: -3; RN4220 kill: 0.5; Bead autofluor: 3438; Mtb hypoxia rep growth: 8

What do the screens show for `COc1ccc(CC(=O)NNS(=O)(=O)c2ccc3ccccc3c2)cc1OC`?
Mtb hypoxia rep: 2; ugtP null kill: 0; PrP UTR inh: -18; BJeLR viability: 4; RN4220 kill: -0.5; Bead autofluor: 9650; Mtb hypoxia rep growth: 2

What do the screens show for `CCOC(=O)C1CCCN(CCC(=O)Nc2ccc(C)cc2)C1` (configuration not stated)?
Mtb hypoxia rep: 4; ugtP null kill: -1; PrP UTR inh: -25; BJeLR viability: -1; RN4220 kill: 0.5; Bead autofluor: 4393; Mtb hypoxia rep growth: -4

Results for O=C(OCn1cncn1)c1ccc(Cl)cc1Cl ?
ugtP null kill: 7; PrP UTR inh: -20; BJeLR viability: 12; RN4220 kill: 3.4; Bead autofluor: 2643

Results for CCOc1ccc(OCC)c(N=c2oc3c(C)ncc(CO)c3cc2C(N)=O)c1 ?
Mtb hypoxia rep: 3; ugtP null kill: 11; PrP UTR inh: -19; BJeLR viability: 8; RN4220 kill: 3.5; Bead autofluor: 3762; Mtb hypoxia rep growth: 12

Results for CCC1C(=O)C(CC)C(c2ccccc2)NC1c1ccccc1 (configuration not stated) ?
Mtb hypoxia rep: 11; ugtP null kill: 3; PrP UTR inh: -21; BJeLR viability: -4; RN4220 kill: -9.7; Bead autofluor: 3720; Mtb hypoxia rep growth: -2

How did COC(=O)c1cc2nc(-c3ccccc3)cc(C(F)(F)F)n2n1 do in these assays?
Mtb hypoxia rep: 11; ugtP null kill: 2; PrP UTR inh: -30; BJeLR viability: 9; RN4220 kill: 4.6; Bead autofluor: 9934; Mtb hypoxia rep growth: 7

Results for O=C(O)C1CC(=O)N(c2ccc3c(c2)OCCO3)C1 (configuration not stated) ?
Mtb hypoxia rep: 20; ugtP null kill: 10; PrP UTR inh: -13; BJeLR viability: 2; RN4220 kill: 1.6; Bead autofluor: 4716; Mtb hypoxia rep growth: 16

Results for CCCNC(=O)c1nn2c(C(F)(F)F)cc(-c3ccccc3)nc2c1Cl ?
Mtb hypoxia rep: 10; ugtP null kill: 8; PrP UTR inh: -21; BJeLR viability: 9; RN4220 kill: 10; Bead autofluor: 3781; Mtb hypoxia rep growth: 1

Results for Cc1ccc(Cl)cc1NC(=S)N(CCN(C)C)C(C)c1ccccn1 (configuration not stated) ?
Mtb hypoxia rep: 10; ugtP null kill: 5; PrP UTR inh: -10; BJeLR viability: -1; RN4220 kill: 3.1; Bead autofluor: 4039; Mtb hypoxia rep growth: 2

Results for C#Cc1ccc([C@H]2C=C(C(=O)N3CCN(Cc4ccc5c(c4)OCO5)CC3)O[C@@H](OCc3ccc(CO)cc3)C2)cc1 ?
PrP UTR inh: -4; BJeLR viability: 2; Bead autofluor: 3127

Results for CCC(c1nnnn1Cc1ccco1)N1CCN(c2cc(Cl)ccc2C)CC1 (configuration not stated) ?
ugtP null kill: 6; PrP UTR inh: -12; BJeLR viability: -18; RN4220 kill: 0.3; Bead autofluor: 3038

How did Cn1nc(C(F)(F)F)c2cc(C(=O)Nc3ccc(F)c(Cl)c3)sc21 do in these assays?
Mtb hypoxia rep: 5; ugtP null kill: -29; PrP UTR inh: 1; BJeLR viability: 4; RN4220 kill: 1.3; Bead autofluor: 4152; Mtb hypoxia rep growth: 1

Results for COCCn1c(SCC(=O)Nc2ccc(N3CCOCC3)cc2)nc2ccccc21 ?
Mtb hypoxia rep: -1; ugtP null kill: 8; PrP UTR inh: -16; BJeLR viability: 2; RN4220 kill: -5.7; Bead autofluor: 2232; Mtb hypoxia rep growth: 1

Results for CCOc1ccccc1CNC(=O)CCN1C(=O)COc2ccccc21 ?
Mtb hypoxia rep: 3; ugtP null kill: -2; PrP UTR inh: -14; BJeLR viability: -1; RN4220 kill: 4.9; Bead autofluor: 11141; Mtb hypoxia rep growth: 2

How did Cc1cccc2sc(NC(=O)C3CCCO3)nc12 (configuration not stated) do in these assays?
Mtb hypoxia rep: 11; ugtP null kill: 7; PrP UTR inh: -46; BJeLR viability: 7; RN4220 kill: 4.3; Bead autofluor: 5661; Mtb hypoxia rep growth: 5

What do the screens show for `COC(=O)c1ccccc1NC(=O)c1ccccc1N(C)S(C)(=O)=O`?
ugtP null kill: -3; PrP UTR inh: -11; BJeLR viability: 1; RN4220 kill: 0.4; Bead autofluor: 4911

How did CN(CC(=O)Nc1ccc(Cl)c(C(F)(F)F)c1)C(=O)CCN1C(=O)C2CCCCC2C1=O (configuration not stated) do in these assays?
Mtb hypoxia rep: 3; ugtP null kill: 94*; PrP UTR inh: -54; BJeLR viability: 2; RN4220 kill: 67; Bead autofluor: 7463; Mtb hypoxia rep growth: 16

How did CCCCc1nc2cc(C(=O)NCc3ccccn3)ccc2o1 do in these assays?
Mtb hypoxia rep: -2; ugtP null kill: 2; PrP UTR inh: -2; BJeLR viability: -6; RN4220 kill: -0.6; Bead autofluor: 4200; Mtb hypoxia rep growth: -1

What do the screens show for `Nc1nonc1-n1nnc(C(=O)NN=Cc2ccoc2)c1CSc1ccccc1`?
Mtb hypoxia rep: 11; ugtP null kill: 6; RN4220 kill: -0.6; Mtb hypoxia rep growth: 11

Results for Cc1ccc(NC(=O)COC(=O)C2CSC3(C)CCC(=O)N23)c(C)c1 (configuration not stated) ?
Mtb hypoxia rep: 10; ugtP null kill: 2; PrP UTR inh: -10; RN4220 kill: 1.1; Mtb hypoxia rep growth: 1

Results for Cc1ccc(-n2nc3c(c2NC(=O)c2ccccc2Br)CS(=O)C3)cc1 (configuration not stated) ?
Mtb hypoxia rep: 9; ugtP null kill: 7; PrP UTR inh: -22; BJeLR viability: 2; RN4220 kill: 4.0; Bead autofluor: 5578; Mtb hypoxia rep growth: 7

What do the screens show for `CC(c1nnc(SCC(=O)N2CCc3ccccc32)n1-c1ccc(Cl)cc1)N(C)C` (configuration not stated)?
Mtb hypoxia rep: 10; ugtP null kill: -1; PrP UTR inh: -22; BJeLR viability: -7; RN4220 kill: 7.0; Bead autofluor: 2977; Mtb hypoxia rep growth: 11

How did CC1(C)CC(=O)C(C2(O)C(=O)N(Cc3ccccc3)c3ccccc32)CO1 (configuration not stated) do in these assays?
Mtb hypoxia rep: 3; ugtP null kill: -2; PrP UTR inh: -2; BJeLR viability: -4; RN4220 kill: 7.9; Bead autofluor: 22533*; Mtb hypoxia rep growth: 5

Results for CN1CC(C(=O)c2cccs2)C(c2ccc(Cl)cc2)C1 (configuration not stated) ?
Mtb hypoxia rep: 8; ugtP null kill: 13; PrP UTR inh: -27; BJeLR viability: 9; RN4220 kill: -0.5; Bead autofluor: 3805; Mtb hypoxia rep growth: 0

What do the screens show for `Cc1cc(C)n(/N=C/c2ccccc2)c(=O)c1C#N`?
PrP UTR inh: -18; BJeLR viability: 6; Bead autofluor: 10023

How did Cc1ccc2nc(NC(=O)CCNS(=O)(=O)c3ccc(Br)s3)sc2c1 do in these assays?
Mtb hypoxia rep: 2; ugtP null kill: -12; PrP UTR inh: -11; BJeLR viability: 7; RN4220 kill: 0.6; Bead autofluor: 23058*; Mtb hypoxia rep growth: -1

Rows are unselected; overall some 4% were active at least once.
